HCMV NEC inh = inhibitors of HCMV UL50-UL53 interaction, biochemical, HTRF; HCMV UL50-UL53 nuclear egress complex (human cytomegalovirus); normalized percent inhibition; inhibition, % (no concentration beside the values); 190,000 tested, 0.15% active; AID 1918969, 2023;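 active means both replicates at 50% or more, plus weaker picks with an unusually low signal ratio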;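 further: stock transfer was 100 nL into about 20 µL; 0% = negative control wells and 100% = wells with untagged competitor protein; inactives centre near -12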
Sa growth 42C = S. aureus growth inhibition at 42 and 30 °C, primary screen, LtaS inhibitor project, RN4220, two temperatures | relative growth, % (test concentration not listed) | AID 720641, 2013 | OD600, 20 h, 42 °C; active compounds read low | 170,000 tested, 0.53% active;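 active means growth at 42 °C up to 50% and 20 or more points under that at 30 °C, or under 10% at both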;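 further: 300 nL library stock went into each well; scaled to the means of positive and negative controls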
GIV-Gai inh = inhibitors of GIV peptide binding to Galpha-i3, primary screen, biochemical, fluorescence polarization, FITC-GIV GBA peptide, rat Galphai3 | Guanine nucleotide-binding protein G(i) subunit alpha-3 (Rattus norvegicus), P08753 | 90 min; active compounds read low; scaled: aluminum fluoride 0%, vehicle 100% | percent of control (FP), % (concentration not given with the values) | 210,000 tested, 0.42% active | AID 1224905, 2016;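 active means replicate mean at 85% of control or lower, very high polarization wells dropped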;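 further: wells of about 15 µL received 100 nL stock; the first replicate is given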
Target sequence (P08753 whole entry, looked up): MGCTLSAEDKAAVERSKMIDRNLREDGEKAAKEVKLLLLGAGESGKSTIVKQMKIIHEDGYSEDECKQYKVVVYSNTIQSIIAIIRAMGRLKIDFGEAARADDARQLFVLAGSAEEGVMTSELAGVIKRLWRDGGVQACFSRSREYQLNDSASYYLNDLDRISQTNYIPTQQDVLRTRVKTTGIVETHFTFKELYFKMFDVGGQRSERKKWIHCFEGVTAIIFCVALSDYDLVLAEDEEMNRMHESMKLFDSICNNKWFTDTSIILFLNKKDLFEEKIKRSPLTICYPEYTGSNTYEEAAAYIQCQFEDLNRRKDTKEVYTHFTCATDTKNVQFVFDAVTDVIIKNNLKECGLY
Sa growth 42C second temp = also measured in Sa growth 42C; calls as there; relative growth, %; measured here: growth at 30 °C;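 optical density after 20 h as mean of two plates; 100% = untreated growth and lower means inhibition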
* hit, by the source's call; . = not tested or not shown; & = joins results of further samples. The order is random; any-hit rate near 0.79%.

SMILES	HCMV NEC inh	Sa growth 42C	Sa growth 42C second temp	GIV-Gai inh
NNC(=O)c1cc2ccccc2[nH]1	.	83	84	107
O=C1N(c2cccc(Cl)c2)C(=Nc2cccc(Cl)c2)SC12CC2	-16	79	86	98
Cc1ccc(Nc2ncc(C(=O)N3CCN(c4ccc(F)cc4)CC3)c3ccccc23)cc1Cl	5	99	96	105
COc1cccc(OCC(=O)Oc2ccc(Br)cc2)c1	-26	126	92	.
Cc1nc(SCC(=O)N2CCCc3ccccc32)c2c(=O)n(C)c(=O)n(C)c2n1	3	104	86	108
N#Cc1c(NC(NC(=O)c2ccco2)(C(F)(F)F)C(F)(F)F)sc2c1CCCCC2	-21	87	80	104
COC(=O)c1ccc(Cl)cc1NC(=O)Cn1ccn2nc(-c3ccc(Cl)cc3)cc2c1=O	7	.	.	115
O=[N+]([O-])c1c(Nc2ccc(Br)cc2)cc(N2CCCCC2)c2nonc12	-21	.	.	103
Cc1ccc(N=C2NC(=O)C(Cc3ccccc3)S2)cc1 (stereo not given)	-22	.	.	104
N#Cc1ccc(CSc2nc3c(c(=O)[nH]2)CCCC3)cc1	0	120	85	102
COC(=O)C1=C(c2ccccc2)c2ccccc2S(=O)(=O)N1CC(=O)Nc1cc(C)ccc1C	0	95	82	107
O=C(Nc1cccc(F)c1)c1nnc(C(=O)N2CCC(C(=O)NC3CCCC3)CC2)s1	-16	.	.	105
COc1ccc(C2C(C(=O)Nc3cc(C)c(Cl)cc3OC)c3ccccc3C(=O)N2C)cc1 (stereo not given)	.	104	91	97
O=C(O)c1ccc2c(c1)C(=O)NC2=O	-74	112	90	102
O=C(CN1C(=O)C2CCCCC2C1=O)N1CCN(c2ccc(F)cc2)CC1 (stereo not given)	-12	.	.	99
COC(=O)C(CC(C)C)NC(=O)c1cccs1 (stereo not given)	-15	100	82	99
COc1ccc(C(C(=O)NCc2ccccc2)N(C(=O)Cn2nnc3ccccc32)c2cccc(OC)c2)cc1 (stereo not given)	-15	111	87	105
CC1CCN(S(=O)(=O)c2cc(C(=O)NCc3ccc(F)cc3)n(C)c2)CC1	.	80	90	99
O=C(c1cc(-c2cccnc2)n(-c2ccc(F)cc2)n1)N1CCN(c2ccccn2)CC1	-5	.	.	103
CCOc1ccc(NC(=O)c2ccc(NC(=O)CSc3nnc(C)n3C3CC3)cc2)cc1	-28	93	94	.
CC1=CC(=C(C#N)C#N)c2ccccc2N1C	-27	88	98	.
CCCOC(=O)C1=C(C)NC2=C(C(=O)CC(c3ccc(OC)cc3)C2)C1c1ccc(OC(C)=O)c(OCC)c1 (stereo not given)	-15	.	.	101
Cc1nc2c(ccc3nc(NC(=O)c4ccc(S(=O)(=O)N(C)c5ccccc5)cc4)sc32)s1	-11	.	.	104
CCCNC(=O)N1CCCC1c1ccc(Cl)cc1 (stereo not given)	-33	.	.	97
CC12CCC(c3c(C(=O)O)nn(-c4ccccc4)c31)C2(C)C (stereo not given)	.	169	73	96

Arranged by molar mass (ascending): part of the list above.
SMILES	HCMV NEC inh	Sa growth 42C	Sa growth 42C second temp	GIV-Gai inh
CC1=CC(=C(C#N)C#N)c2ccccc2N1C	-27	88	98	.
COC(=O)C(CC(C)C)NC(=O)c1cccs1 (stereo not given)	-15	100	82	99
CCOc1ccc(NC(=O)c2ccc(NC(=O)CSc3nnc(C)n3C3CC3)cc2)cc1	-28	93	94	.

Continuation.
SMILES	HCMV NEC inh	Sa growth 42C	Sa growth 42C second temp	GIV-Gai inh
c1ccc(CCNc2ncccc2-c2nc(-c3ccccc3)no2)cc1	-27	.	.	104
Cc1onc(-c2ccccc2)c1C(=O)NC1CC1	-18	80	91	.
COc1cccc(NC(=O)CN2C(=O)CCc3cc(S(=O)(=O)N4CCCC4)ccc32)c1	-13	.	.	112
COC(=O)c1ccc(NC(=O)CCc2c(C)nc3c(c2C)c(=O)n(C)c(=O)n3C)cc1	-23	92	91	105
CCc1ccc(NC(=O)c2ccc3c(c2)N(Cc2ccc(C)cc2)CCS3)cc1	-20	110	82	104
COc1cc(/C=N/NC(N)=S)ccc1OCC(=O)N1CCOCC1	-26	93	105	101
COC(=O)c1cncc(C(=O)OC)c1	0	91	91	105
Cc1cc(-c2ccc(S(=O)(=O)Nc3ccccc3F)s2)on1	.	94	91	100
O/N=C/c1ccc(N2CCOCC2)s1	-47	98	96	.
CCn1c(=N)n(CC(O)c2ccccc2)c2ccccc21 (stereo not given)	-23	96	78	100
c1ccc2c(c1)OCC(CNc1ncnc3c1oc1ccccc13)O2 (stereo not given)	0	93	99	.
Cc1nnc(NC(=O)CSCc2cc(=O)c3cc(Cl)ccc3[nH]2)s1	.	78	92	104
Cc1ccc(C)c(OCCC(=O)Nc2ccc3c(c2)OCO3)c1	-21	93	93	.
Clc1ccc2nc(-c3cccs3)c(Nc3ccc4c(c3)OCCO4)n2c1	-14	114	93	105
COc1cc(CNCc2cccnc2)ccc1OCc1ccccc1	-40	98	78	.
CCOC(=O)C(Nc1cccc(F)c1)c1ccccc1 (stereo not given)	-9	101	76	100
CCCCn1c(SCCO)nc2c(c1=O)C1(CCCC1)Cc1ccccc1-2	-17	85	85	102
CC1CCN(c2nn3c(C(=O)N4CCC(N5CCCCC5)CC4)cc(=O)nc3s2)CC1	-29	.	.	100
O=C(NCCN1CCOCC1)c1nn2c(C(F)(F)F)cc(-c3ccc(Cl)cc3)nc2c1Cl	-33	.	.	102
S=c1[nH]c2c(Cl)cc(Cl)cc2o1	-9	3.3*	-0.1*	110
Cc1cc(C)c(S(=O)(=O)NCC(c2ccc(N(C)C)cc2)N2CCc3ccccc32)c(C)c1 (stereo not given)	.	103	86	100
CCCNC(=O)c1ccc2c(=O)n(CCOC)c(SC(C)C(=O)c3ccc(C)c(C)c3)nc2c1 (stereo not given)	4	.	.	101
O=C(Cn1c(=O)n(Cc2ccc(C(=O)NCc3ccccc3Cl)cc2)c(=O)c2ccccc21)Nc1ccc(F)c(Cl)c1	-20	105	84	106
C=CCn1c(=O)[nH]c2cc(C(=O)N3CC=C(c4ccccc4)CC3)ccc2c1=O	-4	107	82	103
Cc1ccc2cc(CCNC(=O)Cc3ccccc3)c(=O)[nH]c2c1	.	94	87	95

Random excerpt: three compounds from above
SMILES	HCMV NEC inh	Sa growth 42C	Sa growth 42C second temp	GIV-Gai inh
Cc1cc(-c2ccc(S(=O)(=O)Nc3ccccc3F)s2)on1	.	94	91	100
COc1cc(/C=N/NC(N)=S)ccc1OCC(=O)N1CCOCC1	-26	93	105	101
CCc1ccc(NC(=O)c2ccc3c(c2)N(Cc2ccc(C)cc2)CCS3)cc1	-20	110	82	104

Additional entries follow:
SMILES	HCMV NEC inh	Sa growth 42C	Sa growth 42C second temp	GIV-Gai inh
Cc1ccc(-n2nc3c4nonc4ccc3[n+]2[O-])cc1	-9	110	98	108
O=C(Nc1ccc(F)cc1)c1oc2ccccc2c1NC(=O)C1c2ccccc2Oc2ccccc21	-14	.	.	106
CCCCN(CCCC)S(=O)(=O)c1cccc2nonc12	-9	.	.	113
CC(C)CC(=O)N1CCCC1c1nc2ccccc2s1 (stereo not given)	-2	.	.	98
CCC(C)OC(=O)C1CC=CCC1C(=O)Nc1cccc(Br)c1 (stereo not given)	-1	100	84	.
COc1cc(OC)cc(C(=O)Nc2c(C(=O)Nc3ccc(F)cc3)oc3ccccc23)c1	0	105	86	102
CCN(CCCNC(=O)c1cc2c(=O)n(CC)c3ccccc3c2s1)c1ccccc1	-23	99	78	101
O=C(Cc1cccs1)NCCCc1ccccc1	9	96	106	106
Cc1cccc(N2CCN(C(=O)CCCN3C(=O)COc4ccc(C)cc43)CC2C)c1 (stereo not given)	-10	89	47	106
CCN1CCN(C(c2ccccc2)c2sc3nc(-c4ccco4)nn3c2O)CC1 (stereo not given)	.	110	94	98
COC(=O)c1sccc1NC(=O)Cn1ccn2nc(-c3ccccc3)cc2c1=O	-18	.	.	97
Cc1ccc(Sc2ncccc2C(=O)NCc2ccco2)cc1	-25	99	92	.
c1ccc2c(c1)OCC(c1nn3cnnc3s1)O2 (stereo not given)	-15	101	88	108
CN(C)c1oc(/C=C/c2ccc(F)cc2)nc1C#N	-36	93	89	103
O=C(CBr)C12CC3CC(CC(C3)C1)C2	0	102	50	.
CCN1C(=O)/C(=C2/Sc3ccc(OC)cc3N2C)SC1=Nc1cccc(O)c1	11	109	83	99
c1ccc(SCc2nnc3sc(-c4cccnc4)nn23)cc1	-16	.	.	110
O=C(c1ccccc1Cl)c1nccn1Cc1ccc(Cl)cc1	-6	126	93	102
CCN(C(=O)C(C)C)c1ccccc1	-11	102	94	99
CCOC(=O)c1[nH]c(COC(=O)C(NS(=O)(=O)c2ccc(Cl)cc2)C(C)O)c(C(=O)OCC)c1C (stereo not given)	-2	95	93	.
Nc1ccc2nc(SCC(=O)c3ccccc3)sc2c1	-17	81	63	111
O=C1CNC(=O)C2(c3ccccc3)CCCN12 (stereo not given)	-5	108	103	106
CC(=O)N(c1cccc(Cl)c1)C1C=CS(=O)(=O)C1 (stereo not given)	-22	.	.	95
O=C(Nc1sc2c(c1C(Nc1ccccn1)c1ccsc1)CCCC2)c1ccccc1 (stereo not given)	-9	.	.	111
O=C(CSc1nnc(CNC(=O)c2ccccc2F)n1-c1ccccc1)Nc1ccccc1F	-10	112	90	101
Continued:
SMILES	HCMV NEC inh	Sa growth 42C	Sa growth 42C second temp	GIV-Gai inh
COCCCNC(=O)c1cc2n(n1)CCCN(Cc1ccc(C)cc1)C2=O	.	91	95	100
O=C(CN1CCN(Cc2ccccc2Cl)S1(=O)=O)Nc1ccc2c(c1)OCCO2	4	.	.	100
Clc1ccccc1-c1csc(-c2ccncc2)n1	-33	82	71	101
COc1cc(-c2nc(SCC(=O)Nc3ccc(C)cc3)c(-c3ccc(F)cc3)[nH]2)cc(OC)c1OC	6	101	75	108
COc1ccc2c(c1OC)CN(C)CCc1cc3c(cc1C(O)C2)OCO3 (stereo not given)	-14	104	87	.
Cc1ccccc1CSc1nnc([C@@H]2CCCN2)o1	-26	.	.	104
Cc1cccc(N2CCN(S(=O)(=O)c3ccc(Cl)nc3)CC2C)c1 (stereo not given)	14	92	97	.
CC(C)CC(=O)N(Cc1ccccc1)S(=O)(=O)c1ccc2c(c1)oc(=O)n2C	17	93	85	104
CCCNC(=O)N1CCN(CC)CC1	-28	99	101	99
CCOc1ccc(S(=O)(=O)/N=C2/C=C(Sc3ncn[nH]3)C(=O)c3ccccc32)cc1	21	22	2	11*
Nc1cccc2c1C(=O)N(c1ccccc1)C2=O	-50	121	80	94
CCn1c2ccccc2c2cc(CO)ccc21	-19	137	95	104
CCCNC(=O)C(C)n1nc(-c2ccccc2)c2cc(Cl)ccc21 (stereo not given)	1	102	90	103
CCOC(=O)C1=C(C)NC(C)=C(C(=O)OC)C1c1cccc([N+](=O)[O-])c1 (stereo not given)	-42&-72&-12&-19&-14&-57&-26&0	90&100&96	81&88&77	102&96
Cc1cc(C)c(Cn2c3ccccc3c3cnn(CC(=O)NCc4ccc(Cl)cc4)c(=O)c32)c(C)c1	5	101	89	105
Cc1cc(=O)[nH]c2nnc(SCC(N)=O)n12	.	113	89	100&105
CCOC(=O)N(c1ccc(OC)cc1)S(=O)(=O)c1ccccc1	-4	120	85	.
OCc1nc2cc3ccccc3cc2[nH]1	.	94	81	102
Cc1cc(C)cc(NC(=O)Cn2cc(S(=O)(=O)NC(C)(C)C)c(S(=O)(=O)NC(C)(C)C)c2)c1	.	90	75	102
CC(C)NC(=O)Cn1c2c(c(=O)n3ncnc13)CCC2	-10	.	.	102
Cc1cc(C(=O)Cn2ncc(Cl)c(Cl)c2=O)c(C)n1-c1ccc2c(c1)OCCO2	-34	110	96	.
O=C(O)CCCN1C(=O)c2cccnc2Oc2ccc(Cl)cc21	-18	84	83	101
COC(=O)c1cc2oc(C)cc2n1Cc1nc(-c2ccc(C)cc2)oc1C	-10	99	94	99
Cc1cccc(Oc2nc3c4c(C)c(C)oc4ncn3n2)c1	-7	97	95	112
O=C(CSc1nc2ccccc2o1)NC1CC1	-6	101	97	101
Following part.
SMILES	HCMV NEC inh	Sa growth 42C	Sa growth 42C second temp	GIV-Gai inh
Cc1ccc(NC(=O)CSc2nnc3scc(-c4ccccc4)n23)cc1	-32	108	59	102
O=C(Nc1ccc2c(c1)CCC2)C1CCCO1 (stereo not given)	-7	106	111	102
O=C(NCCc1nc2cccnc2n1-c1ccccc1)NC1CCCC1	-16	.	.	108
CN(C(=O)CN1CCc2ccccc2C1)c1c(N)n(Cc2ccccc2)c(=O)[nH]c1=O	-15	84	92	.
COc1ccc(OC)c(CNC(=O)c2ccc(NC(=O)c3nsc4ccccc34)cc2)c1	.	100	101	104
CC(C)(C)c1cc(O)c(O)c(Br)c1	-1	29	13	99
O=C(COc1ccccc1)N1CCC(c2nc3ccccc3s2)CC1	-13	.	.	103

Some of the entries so far, with each value named:
CCN(CCCNC(=O)c1cc2c(=O)n(CC)c3ccccc3c2s1)c1ccccc1
  HCMV NEC inh = -23 | Sa growth 42C = 99 | Sa growth 42C second temp = 78 | GIV-Gai inh = 101

Cc1cccc(N2CCN(S(=O)(=O)c3ccc(Cl)nc3)CC2C)c1 (stereo not given)
  HCMV NEC inh = 14 | Sa growth 42C = 92 | Sa growth 42C second temp = 97 | GIV-Gai inh = .

Source: PubChem BioAssay (ICCB-Longwood Screening Facility, Harvard Medical School)
